# Bioassay records deposited in PubChem by National Center for Advancing Translational Sciences (NCATS).
# TRPV1 potentiator: human TRPV1 potentiation; TRPV1-expressing cells, Fluo-8 calcium influx, capsaicin EC20 potentiation; host cell line not named in the record; control for the full effect not named in the record; 320,000 compounds, 0.02% hits; Q8NER1; potentiation, % at 8.33 µM; AID 540277; active means potentiation above 80%; inconclusive means 30% to 80%; inactive means below 30%; also: 0% is about no effect
# Target sequence (Q8NER1 whole entry, looked up): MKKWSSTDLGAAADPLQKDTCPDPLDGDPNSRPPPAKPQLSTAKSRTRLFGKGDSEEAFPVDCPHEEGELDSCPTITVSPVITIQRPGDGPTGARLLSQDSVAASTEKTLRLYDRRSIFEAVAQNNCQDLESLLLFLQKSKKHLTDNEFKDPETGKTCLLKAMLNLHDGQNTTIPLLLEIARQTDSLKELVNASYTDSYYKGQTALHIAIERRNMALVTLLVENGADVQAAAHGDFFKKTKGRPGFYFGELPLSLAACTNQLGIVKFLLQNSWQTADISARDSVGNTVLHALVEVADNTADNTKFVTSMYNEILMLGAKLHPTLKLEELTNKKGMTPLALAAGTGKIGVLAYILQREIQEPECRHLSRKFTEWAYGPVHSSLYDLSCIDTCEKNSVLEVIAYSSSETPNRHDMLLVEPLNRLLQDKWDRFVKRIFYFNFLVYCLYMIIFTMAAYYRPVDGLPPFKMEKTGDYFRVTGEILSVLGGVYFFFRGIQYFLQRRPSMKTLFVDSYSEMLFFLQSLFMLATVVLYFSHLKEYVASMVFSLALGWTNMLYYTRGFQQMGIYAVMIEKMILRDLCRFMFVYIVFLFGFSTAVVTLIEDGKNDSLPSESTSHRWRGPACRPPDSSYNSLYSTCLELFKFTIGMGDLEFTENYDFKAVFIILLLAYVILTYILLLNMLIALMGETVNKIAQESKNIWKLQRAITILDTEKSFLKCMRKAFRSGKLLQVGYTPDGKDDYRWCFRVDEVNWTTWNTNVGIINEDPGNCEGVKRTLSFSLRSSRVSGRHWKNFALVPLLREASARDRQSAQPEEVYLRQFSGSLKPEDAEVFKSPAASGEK
#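 TRPV1-expressing cells were cultured overnight at 35.5C and loaded with Fluo-8 calcium dye for 40 to 90 min at room temperature. After a 10 s baseline, compound was added and calcium influx was read kinetically for 3 min (ex 480/em 520 nm).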
# gsp antagonist: gsp mutant antagonism; Potency, µM (series often up to 76.9 µM), without a hit: top-dose activity change, negative = inhibition, actives largely listed as inhibitors; 340,000 compounds, 0.4% hits; gsp-mutant cells, cAMP HTRF, 30 min; control for the full effect not named in the record; active = falling curve of any shape with a large fitted effect; inconclusive = falling curve, mostly with a smaller effect; inactive = flat or rising curve; cell line not stated here;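 also: intracellular cAMP measured with PDE inhibitor Ro 20-1724 present during compound exposure; potency is read from the fitted curve at half-maximal effect; % is scaled to controls: 0 for no effect and ±100 for the full control effect; nearly all actives have a fitted effect of over 65% in size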
#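 Measurement of cellular cAMP by homogeneous time-resolved fluorescence following a 30 min compound exposure at 37C. The PDE inhibitor […] was present throughout; the assay buffer was DPBS with 0.05% BSA and 0.005% Tween 20.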
# Menin MLL FP FL: menin-MLL binding inhibition, fluorescein peptide | Fluorescence polarization, fluorescein-MLL peptide displacement from menin | FP activity change, % at 61.4 µM | 290,000 tested, under 10 active | AID 1766; inconclusive = falling polarisation curve, or a change in total fluorescence; inactive = total fluorescence flat and polarisation flat or rising; no compound was filed as active; the % refers to the polarisation; negative = inhibition;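 also: % of control where 0% means no effect; inhibitors lower the polarisation; unlabelled MLL peptide was the positive control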
# gsp agonist: gsp mutant agonism. gsp mutant cells, cAMP HTRF, 30 min; control for the full effect not named in the record. Potency, µM (doses to about 76.9 µM), for inactives: top-dose activation (cAMP increase), most hits filed as activators. 340,000 compounds, 0.13% hits; active = well fitted activation curve with a large enough effect; inconclusive = small, poorly fitted or top-dose-only effect, or another doubt; inactive = no such curve, though single readings can be large or run the other way; cell line not stated here;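 also: phosphodiesterase inhibitor Ro 20-1724 added with compounds to block cAMP breakdown; potency is read from the fitted curve at half-maximal effect; nearly all actives have a fitted effect of over 60% in size; about a fifth of the inactives were tested at one dose only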
#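 Cells in DMEM/10% FBS with G418 were pretreated with compounds in DMSO plus […] (300 uM stock) for 30 min at 37C. cAMP was measured by HTRF (cAMP-d2 plus anti-cAMP antibody-K) after 30 min at room temperature.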
# ClpP mod: qHTS Assay for Activators of ClpP; ATP-dependent Clp protease proteolytic subunit (Bacillus subtilis (strain 168)), P80244; purified B. subtilis ClpP, FRET peptide cleavage, 20 min; Potency, µM (top dose mostly 57.5 µM), for inactives: at the highest dose activity change, negative = active; 340,000 compounds, 1.9% hits; AID 651965, 2013; active = well fitted falling curve with a large enough effect; inconclusive = small, poorly fitted or top-dose-only effect; inactive = no such curve, though single readings can be large or run the other way; also: potency is read from the fitted curve at half-maximal effect; the source files actives as falling curves though it sought activators and does not explain the sign; nearly all actives have a fitted effect of over 65% in size; many hits overshoot -100%
# Target sequence (P80244 whole entry, looked up): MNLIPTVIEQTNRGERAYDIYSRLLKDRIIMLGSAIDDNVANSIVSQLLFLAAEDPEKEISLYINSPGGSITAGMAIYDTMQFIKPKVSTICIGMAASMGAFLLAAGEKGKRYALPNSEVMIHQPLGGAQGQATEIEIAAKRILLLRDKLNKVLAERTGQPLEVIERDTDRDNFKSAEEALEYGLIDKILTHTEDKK
#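 ClpP 10 microg/mL final, pH 8 Tris/KCl buffer with BSA, glycerol, Tween-20; compound pinned in; FRET-FV substrate; RT 20 min; Ex320/Em430; ΔFRET vs ADEP 5.8 microM, DMSO, no enzyme.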
# TRPML1 inh: blocks the human TRPML1 channel; Q9GZU1; TRPML1-inducible cells, Ca2+ dye fluorescence, FDSS; active compounds read low; inhibition of EC80 agonist-evoked calcium signal; activity change, negative = inhibition, % (test concentration not listed); 390,000 compounds, 0.02% hits; in the data active means activity change below about -50%; inconclusive means about -30% to -50%; inactive means above about -30%;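 also: stimulus is agonist 54-4 at its EC80 concentration; % is scaled to controls: 0 for no effect and ±100 for the full control effect; compound concentration not given in the record; the text of the record puts the active cut at -80%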
#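 Tet-induced TRPML1-DL cells loaded with Ca8 no-wash calcium dye were read kinetically on FDSS. Compound addition was followed by EC80 agonist 54-4 (4 uM final); inhibition was read over 110 s.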
# Sfp PPTase inh: inhibitors of Bacillus subtilis Sfp phosphopantetheinyl transferase | Q9F4F7 | Biochemical Sfp PPTase activity, qHTS | Potency, µM, for inactives: max response, negative = inhibition, hits mostly inhibitors | 310,000 compounds, 3.5% hits | AID 1490; active = well fitted inhibition curve with a large enough effect; inconclusive = small, poorly fitted or top-dose-only effect, or another doubt; inactive = no such curve, though single readings can be large or run the other way;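 also: the enzyme is Sfp with the accession as filed and its product quenches rhodamine fluorescence; potency is read from the fitted curve at half-maximal effect; 0% = enzyme reaction without inhibitor and -100% = no enzyme wells; top concentration of the series not given in the record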
#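 Reaction rates are the 30-min fluorescence difference (ex 525, em 598 nm) in wells containing 15 nM Sfp, 5 uM rhodamine-CoA and 12.5 uM BHQ-2-YbbR at pH 7.6 with 10 mM MgCl2.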
# The depositor's hits bear a star; ? = inconclusive; . = no result given; & = joins results of further samples; [ ] = remark or other dose. An excerpt; the hit share may differ from the screen's.
# Start of the listing, in advance:
SMILES,TRPV1 potentiator,gsp antagonist,Menin MLL FP FL,gsp agonist,ClpP mod,TRPML1 inh,Sfp PPTase inh
CCOP(=O)(OCC)OCC,5,1%,.,.,1.1%,2,.
Cc1cccc(C)c1OCc1n[nH]c(=S)n1N,-19,5%,-5.0,4%,2.9%,3,50µM*

# The whole of this part, from the start:
SMILES,TRPV1 potentiator,gsp antagonist,Menin MLL FP FL,gsp agonist,ClpP mod,TRPML1 inh,Sfp PPTase inh
CCOP(=O)(OCC)OCC,5,1%,.,.,1.1%,2,.
Cc1cccc(C)c1OCc1n[nH]c(=S)n1N,-19,5%,-5.0,4%,2.9%,3,50µM*
CCc1ccc(NC(=S)NC2CC3CCC(C2)N3Cc2ccco2)cc1 (stereo not given),-16,11%,-1.7,-39%[inhibitor],-2.0%,6,-2%
CC12CN3CCN(CC(C3)C1O)C2 (stereo not given),.,7%,3.4,-18%,-1.8%,-14,6%
C[N+](C)(N)CCOC(=O)C(O)(c1ccccc1)C1CCCCC1 (stereo not given),.,12%,.,-4%[15.4 µM],-0.7%,-10,.
C=C1C[C@@H]2[C@H](CC[C@]3(C)C(=O)CC[C@@H]23)[C@@]2(C)C=CC(=O)C=C12,-7,.,0.1,.,.,.,-7%
CC(=NCC1CCCO1)c1c(O)n(Cc2ccccc2)c(=O)[nH]c1=O (stereo not given),-3,11%,8.9,-1%,-1.0%,-8,1%
CCC1=Nc2cc(C(=O)N3CCC4(CC3)OCCO4)ccc2Sc2ccc(Br)cc21,-15,-15%,-8.4,0%,1.1%,17,-4%
C[n+]1c(-c2ccccc2)cc(-c2ccc(O)cc2)cc1-c1ccccc1,0,5%,?,25%,.,-1,12%
Cc1ccccc1NC(=O)CCl,16,-5%,-1.3,28%,-0.5%,-15,15%
Cc1cccnc1NC1=NCC(C)S1 (stereo not given),5,8%,-0.3,-34%[inhibitor],-2.1%,-1,16%
C[C@]12CCC(=O)CC1CCC1C2CC[C@]2(C)C(OC(=O)CCC(=O)O)CCC12 (stereo not given in full),4,-3%,6.8,-3%[15.4 µM],1.0%,13,6%
CCOC(=O)C(NC(C)=O)C(OC(C)=O)c1cccc(N(CCCl)CCCl)c1 (stereo not given),-18,-6%,0.4,22%,-1.6%,-10,2%
FC(F)(F)c1cccc(C2NCc3ccccc3-n3cccc32)c1 (stereo not given),-5,2%,3.4,38%,.,15,5%
COC(=O)C1=C(c2cc3ccccc3o2)C[C@@H]2CC[C@H]1N2C(=O)NCc1ccccc1,.,-27%,.,.,-2.6%,-16,.
COc1cccc(-n2c(O)c(C=NCCN3CCNCC3)c(=O)[nH]c2=S)c1,5,-2%,1.1,-17%,.,1,9%
O=C1CC(=O)N(c2ccc(Cl)cc2Cl)C(=O)N1,3,8%,?,23%,-1.7%,15,2%
COc1ccc(OC)c(C(O)C2CCCCN2)c1 (stereo not given),-4,9%,51[activator],-4%[15.4 µM],-0.2%,1,-3%
CO[C@H]1C=C2CCN(C)[C@H]2C2c3cc4c(cc3C(=O)O[C@@H]21)OCO4 (stereo not given in full),-16,17%,.,.,4.8%,-6,.
CCCC1C(C#N)=C(N)Oc2c1c(=O)oc1ccccc21 (stereo not given),-2,-7%,3.2,-30%[inhibitor],61%,19,4%
O/N=C/c1c[nH]c2ccccc12,0,5%,3.8,-2%,-6.1%,-3,8%
O=S(c1ccccc1)c1ccccc1,.,4%,.,?,.,-9,.
Cc1ccc(CS(=O)(=O)Cc2ccc(C(=O)N3CCC4(CC3)OCCO4)o2)cc1,6,-14%,0.4,-25%,0.7%,-2,-9%
O=C1CN=C(c2ccccc2F)c2cc(Cl)ccc2N1,-6,1%,6.2,.,-0.3%,-1,?
C[C@H]1CN([C@@H](C)CO)C(=O)CCCn2nncc2CO[C@H]1CN(C)C(=O)Oc1ccc2ccccc2c1,.,.,.,19%,-2.8%,-4,.
C=CCn1c(O)c(C(CC)=NCCc2c[nH]c3ccccc23)c(=O)[nH]c1=O,5,7%,3.3,?,.,-13,4%
Cc1ccccc1-n1c(O)c(/C=N/NC(=O)c2ccncc2)c(=O)[nH]c1=O,-11,9%,1.9,-3%,.,-12,17%
Cc1cc(C(C)(C)C)cc(C)c1CC1=NCCN1,7,11%,-6.3,.,0.1%,0,-23%&-2%&10%
Cn1c(C(=O)N2CCN(c3nc4ccccc4s3)CC2)cc2sccc21,-3,3%,2.1,-22%,7.2%,-8,5%
CSc1ccccc1C(=O)C1CCCN(Cc2ccccn2)C1 (stereo not given),5,11%,2.3,3%,.,3,-7%
C[S+](CC[C@H](N)C(=O)O)C[C@H]1O[C@@H](n2cnc3c(N)ncnc32)[C@H](O)[C@@H]1O (stereo not given in full),-2,7%,-1.4,.,-1.6%,0,?
COC(=O)C(C)Oc1cc(C)cc2oc(=O)c3c(c12)CCC3 (stereo not given),-2,15%,-1.1,-32%[inhibitor],53%,2,-3%
Clc1cccc(CN2CCCCC2c2cccnc2)c1 (stereo not given),.,?,-1.0,-11%,0.1%,-14,50µM*
COc1ccc(-c2noc(CN3C(=O)c4ccccc4C3=O)n2)cc1,-8,15%,0.0,-38%[inhibitor],1.0%,6,3%
O=C(O)c1cccc(NC(=O)N2C[C@H]3C[C@@H](C2)c2cccc(=O)n2C3)c1,-7,8%,-1.1,.,-4.3%,.,6%
COC(=O)C1=C(c2ccc(OC(F)(F)F)cc2)C[C@@H]2CC[C@H]1N2C(=O)NCCOc1ccc(OC)cc1,-3,?,.,.,1.7%,-10,.
COc1ccc(OC)c(CNC(=O)CCS(=O)(=O)c2ccc3c(c2)oc(=O)n3C)c1,18,6%,.,?,0.3%&2.8%,-11&2,15%
O=C1NC2NC(=O)N([N+](=O)[O-])C2N1 (stereo not given),26,6%,-2.8,15%,-0.7%,31,6%
Cc1cc(OCC(=O)N2CCCN(C)CC2)ccc1Cl,1,1%,.,6%,0.2%,-17,1%
NS(=O)(=O)OC(CCc1ccccc1)C(Cl)(Cl)Cl (stereo not given),11,-5%,-1.6,.,1.3%,26,8%
N#CC(c1cccnc1)N1CCOCC1 (stereo not given),3,14%,6.0,?,0.1%,.,12%
CCOP(=O)(CCP(=O)(OCC)OCC)OCC.C[CH2][Sn]([Cl])([Cl])[CH2]C,.,?,.,3%,-2.0%,-8,.
COc1cc(/C=C2\C(=O)NC(=O)N(c3ccccc3)C2=O)c([N+](=O)[O-])cc1OC,20,-9%,2.6,18%[15.4 µM],-5.0%,26,40µM*
O=C(c1c[nH]cc1-c1ccccc1)c1cccc2ccccc12,12,?,5.4,-14%,0.1%,-1,17%
CC12CCC3C(CCC4CC(=O)C(C(O)C(F)(F)F)CC43C)C1CCC2O (stereo not given),.,-9%,.,9%,.,28,.
CC[C@@]1(O)C(=O)OCc2c1cc1n(c2=O)Cc2cc3c(NC(=O)CN)cccc3nc2-1,-5,10%,-7.2,10%[15.4 µM],1.4%,3,56µM*
CC(=O)Nc1ccc2c(c1)CC1(C(=O)N(C)C(=O)N(C)C1=O)C1CCCN21 (stereo not given),.,1%,-7.7,-6%,-14%,-6,-12%
COc1cccc(-n2c(CN3CCN(C)CC3)nc3ccc([N+](=O)[O-])cc3c2=O)c1,9,3%,-8.1,7%,-3.0%,-7,7.9µM*
CCC(=NCc1cccnc1)c1c(O)n(Cc2ccccc2)c(=O)[nH]c1=O,-13,-18%,0.0,-22%,0.2%,16,15%
COc1ccc2c(c1O)-c1c(OC)c(OC)cc3c1[C@H](C2)N(C)CC3,9,-7%,8.4,.,-24%,3,-4%&18%
CCn1c(O)c(/C=N/NC(=O)c2ccccc2)c(=O)[nH]c1=S,-22,2%,4.6,1%,-2.8%,15,31%[activator]
CCN(CC)P(=O)(Oc1cccc(C)c1)N(CC)CC,-20,0%,3.5,6%,1.0%,20,11%
C[C@]12C[C@@H](O)[C@H](O)CC1=CCC1C2CC[C@@]2(C)C1CC[C@@H]2O (stereo not given in full),.,3%,.,?,.,2,.
O=P(O)(O)/C=C(\Cl)c1ccccc1,-3,6%,-1.9,3%,-2.6%,9,-9%
O=C(c1cccn2c(=O)c3cc(Br)ccc3nc12)N1CCC2(CC1)OCCO2,-16,4%,-2.3,2%,?,-17,-3%
CCC1CN1P(=O)(N1CCCC1)N1CC1CC (stereo not given),.,18%,.,-22%,-1.5%,-1,.
CC1=CC(c2ccccc2)NC(=S)N1 (stereo not given),5,6%,-0.4,29%,-1.1%,-26,?
O=C1OCCN1P(=O)(c1ccccc1)c1ccccc1,-2,8%,-1.0,-4%,1.9%,-9,14%
Cc1c(C=O)c2ccccc2n1Cc1ccc(F)cc1,5,-4%,-3.7,-18%[15.4 µM],.,-3,13%
CNc1cc(N2CCNCC2)ccc1[N+](=O)[O-],5,3%,-3.1,24%,2.1%,-19,16%

# The list continues:
SMILES,TRPV1 potentiator,gsp antagonist,Menin MLL FP FL,gsp agonist,ClpP mod,TRPML1 inh,Sfp PPTase inh
COc1ccc2c(c1OC)C(=O)O[C@H]2[C@@H]1c2cc3c(cc2CCN1C)OCO3,8,19%,.,.,-18%,-5,.
N=C(N)c1c(O)n(C2CCCCC2)c(=O)n(C2CCCCC2)c1=O,-9,-24%,0.0,-22%,-5.9%,39,24%
CCOC(=O)C(O)(c1ccc(N(CC)C(=O)COc2ccccc2)cc1)C(F)(F)F (stereo not given),5,-19%,5.1,-27%,2.0%,-3,17%
Cn1cccc1/C=C1\C(=O)NC(=O)N(CCC2=CCCCC2)C1=O,2,21%,1.8,-2%,.,-1,3%
CCOP(=O)(OCC)c1nc(-c2cccc3ccccc23)oc1NCCc1ccc(OC)cc1,8,-6%,5.2,13%,0.0%,-6,?
Cc1ccc(NP(=O)(c2ccccc2)c2nc3ccccc3s2)cc1 (stereo not given),-12,-28%,-0.7,-67%[inhibitor],0.8%,-6,5%
c1ccc(CNC2=NCCS2)cc1,7,-2%,-0.2,-2%,-1.4%,-8,11%

# Copied from the list:
# gsp agonist with CCOP(=O)(OCC)c1nc(-c2cccc3ccccc23)oc1NCCc1ccc(OC)cc1 is entered as 13%
# TRPML1 inh with COc1ccc2c(c1OC)C(=O)O[C@H]2[C@@H]1c2cc3c(cc2CCN1C)OCO3 is entered as -5
